MLL AF4-AF9 inh = inhibitors of human MLL-AF4/AF9 interaction | P42568 | AlphaScreen, biotin-AF4 peptide binding to FLAG-AF9 | inhibition, % at 10 µM | hit rate 0.47% among 350,000 | AID 651704;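 active means every replicate reaching a set inhibition limit, whatever the replicate mean, cut at about 25% in these data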;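 further: 0% = plate neutral control median and 100% = total signal loss; the record names both 10 and 1 µM as test concentration; the first replicate is given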
Target sequence (P42568 whole entry, looked up): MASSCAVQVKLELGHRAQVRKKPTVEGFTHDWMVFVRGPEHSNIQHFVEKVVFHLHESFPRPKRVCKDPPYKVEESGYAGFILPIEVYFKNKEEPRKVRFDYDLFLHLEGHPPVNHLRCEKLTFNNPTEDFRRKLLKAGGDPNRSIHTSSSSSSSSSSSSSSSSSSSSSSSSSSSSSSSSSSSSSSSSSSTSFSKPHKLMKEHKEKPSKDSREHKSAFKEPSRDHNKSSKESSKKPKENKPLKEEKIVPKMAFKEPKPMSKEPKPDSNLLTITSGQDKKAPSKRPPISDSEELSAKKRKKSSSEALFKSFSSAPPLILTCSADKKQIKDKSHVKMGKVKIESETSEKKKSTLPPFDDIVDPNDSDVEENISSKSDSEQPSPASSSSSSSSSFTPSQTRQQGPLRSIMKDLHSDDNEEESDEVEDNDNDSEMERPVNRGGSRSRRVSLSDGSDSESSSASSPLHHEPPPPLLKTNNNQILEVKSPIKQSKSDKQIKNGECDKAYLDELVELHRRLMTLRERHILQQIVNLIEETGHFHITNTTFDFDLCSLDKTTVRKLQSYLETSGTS
Starred values were filed as active, the others as inactive; & = joins results of further samples. Not all compounds are listed, so the mix of outcomes need not match the whole.

SMILES	MLL AF4-AF9 inh
C[C@@H]1CN([C@H](C)CO)C(=O)c2cccc(NC(=O)Nc3ccc(F)cc3)c2O[C@@H]1CN(C)S(C)(=O)=O	-0.6
CS(=O)(=O)Nc1ccc2c(c1)[C@H]1C[C@@H](CC(=O)NCCN3CCCCC3)O[C@H](CO)[C@H]1O2	2.5
O=C(C[C@H]1C=C[C@H](NC(=O)C2CCOCC2)[C@@H](CO)O1)Nc1ccccc1	-8.5
C[C@@H]1CCCCO[C@H](CN(C)C(=O)C2CCCCC2)[C@H](C)CN([C@H](C)CO)C(=O)c2cc(NS(=O)(=O)c3cccs3)ccc2O1	-9.1
COc1ccc(NC(=O)Nc2ccc3c(c2)C(=O)N([C@@H](C)CO)C[C@@H](C)[C@H](CN(C)C(=O)NC(C)C)OCCCC[C@@H](C)O3)cc1	0.0
OC[C@H]1[C@@H](c2ccc(-c3ccc(F)cc3)cc2)[C@@H]2CN(CCC(F)(F)F)CCCCN12	11.0
C[C@@H]1CCCCO[C@@H](CN(C)S(=O)(=O)c2ccc(F)cc2)[C@@H](C)CN([C@@H](C)CO)C(=O)c2cc(NC(=O)NC3CCCCC3)ccc2O1	-1.7
OC[C@H]1[C@H](c2ccc(-c3ccccc3)cc2)[C@H]2CN(Cc3ccccn3)CCCCN21	-1.7
O=C(Nc1ccc(C(O)c2ccccc2)cc1)[C@@H]1O[C@H](CO)[C@H](O)[C@H](O)[C@H]1O (some centres undefined)	-6.9
Cc1noc(C)c1S(=O)(=O)Nc1ccc2c(c1)C(=O)N([C@H](C)CO)C[C@@H](C)[C@@H](CN(C)C(=O)CCC(F)(F)F)OCCCC[C@H](C)O2	-0.2
CC(C)NC(=O)N(C)C[C@@H]1Oc2ncc(C#CC(C)(C)O)cc2C(=O)N([C@H](C)CO)C[C@@H]1C	-1.7
CC(O)(c1ccccc1)c1nc(-c2ccc(Cl)cc2)cs1 (centres undefined)	-9.0
Cc1ccc(S(=O)(=O)N[C@H]2CC[C@H](CCNC(=O)C3CCCC3)O[C@@H]2CO)cc1	-2.6
N#Cc1cccc(NC(=O)c2cc(C3CCCCN3C(=O)CCc3ccccc3)on2)c1 (centres undefined)	-1.5
O=C(C[C@@H]1CC[C@H]2[C@@H](COC[C@@H](O)CN2Cc2ccc(F)cc2)O1)NCc1ccccc1Cl	-0.2
C[C@@H]1CN([C@H](C)CO)C(=O)Cc2cc(NC(=O)Nc3ccc(C(F)(F)F)cc3)ccc2O[C@H]1CN(C)Cc1ccc(C(=O)O)cc1	-2.6
C[C@@H]1CN([C@H](C)CO)S(=O)(=O)c2ccc(C#Cc3ccccc3)cc2O[C@@H]1CN(C)C(=O)Nc1ccccc1	0.1
COCC(=O)N(C)C[C@@H]1Oc2cc(-c3ccccc3F)ccc2S(=O)(=O)N([C@@H](C)CO)C[C@@H]1C	-2.2
Cn1c(=O)c2cc(NC(=O)CCc3ccccc3)ccc2n1-c1ccccc1F	0.7
O=C(Nc1ccc2c(c1)[C@@H]1C[C@H](CC(=O)N3CCc4ccccc4C3)O[C@H](CO)[C@@H]1O2)NC1CCCC1	2.0
C[C@@H]1CN([C@@H](C)CO)C(=O)c2cc(/C=C/c3ccccc3)cnc2O[C@@H]1CN(C)C(=O)CN1CCOCC1	-0.2
COc1cccc(S(=O)(=O)N[C@H]2CC[C@H](CCn3cc(-c4ccccc4OC)nn3)O[C@H]2CO)c1	0.6
COc1ccc(C#Cc2ccc3c(c2)[C@]2(C(=O)N3)[C@H](c3ccc(OCCO)cc3)N3[C@H](c4ccccc4)[C@H](c4ccccc4)OC(=O)[C@H]3[C@@H]2C(=O)NC[C@H](O)c2ccccc2)cc1	-0.6
COC(=O)/C=C1\Nc2ccc(Cl)cc2C(=O)NC1=O	-8.1
COC(=O)C1=CN(c2ccccc2OC)C(N)=C(C#N)C1c1cccc([N+](=O)[O-])c1 (centres undefined)	5.7
CCNC(=O)C[C@H]1C=C[C@H](NC(=O)C2CCOCC2)[C@H](CO)O1	-1.2
C[C@H](CO)N1C[C@H](C)[C@H](CN(C)C(=O)Nc2ccccc2)Oc2ccc(NS(C)(=O)=O)cc2CC1=O	-3.5
COCc1cn(CC[C@@H]2CC[C@@H](NC(=O)Nc3ccc(C(F)(F)F)cc3)[C@H](CO)O2)nn1	1.4
O=S(=O)(NC[C@@H]1[C@H](c2ccccc2)[C@@H](CO)N1CC1CC1)c1ccccc1	-0.2
COc1ccc(CN(C)C[C@H]2Oc3c(NS(=O)(=O)c4cccs4)cccc3C(=O)N([C@@H](C)CO)C[C@H]2C)cc1	2.1

In the list so far, 2 contain two or more sulfur atoms:
SMILES	MLL AF4-AF9 inh
C[C@@H]1CCCCO[C@H](CN(C)C(=O)C2CCCCC2)[C@H](C)CN([C@H](C)CO)C(=O)c2cc(NS(=O)(=O)c3cccs3)ccc2O1	-9.1
COc1ccc(CN(C)C[C@H]2Oc3c(NS(=O)(=O)c4cccs4)cccc3C(=O)N([C@@H](C)CO)C[C@H]2C)cc1	2.1

The results go on.
SMILES	MLL AF4-AF9 inh
CNC[C@H]1Oc2cc(C#CC(C)(C)O)ccc2S(=O)(=O)N([C@H](C)CO)C[C@@H]1C	-1.4
C[C@H]1CN([C@@H](C)CO)C(=O)c2cc(NC(=O)CCCN(C)C)ccc2O[C@H]1CN(C)C(=O)Nc1ccc(F)cc1	-1.1
CC(C)NC(=O)N(C)C[C@@H]1OCCCC[C@@H](C)Oc2ccc(NS(=O)(=O)c3cn(C)cn3)cc2C(=O)N([C@H](C)CO)C[C@H]1C	1.2
C[C@H]1CN([C@@H](C)CO)C(=O)Cc2cc(NC(=O)CCCN(C)C)ccc2O[C@H]1CN(C)S(=O)(=O)c1ccccc1	-1.9
C[C@@H]1CN([C@@H](C)CO)C(=O)Cc2cc(NS(=O)(=O)c3ccc(Cl)cc3)ccc2O[C@H]1CN(C)C(=O)Nc1cccc2ccccc12	1.2
CN(C)C(=O)c1ccc(-c2ccc3c(c2)[C@@H]2[C@@H](CCN2C(=O)Cc2ccccn2)[C@H](CO)N3C)cc1	3.4
COCC(=O)Nc1ccc2c(c1)C(=O)N(C)C[C@H](OC)[C@H](C)CN(CCC(F)(F)F)[C@H](C)CO2	1.0
O=C(NCC[C@@H]1CC[C@@H](NC(=O)c2ccncc2)[C@H](CO)O1)Nc1ccc(Cl)cc1	14.6
COCC(=O)N1CCCCN2[C@@H](CO)[C@H](c3ccc(-c4ccccc4)cc3)[C@@H]2C1	1.8
CN1c2ccc(-c3ccccc3)cc2[C@H]2[C@H](CCN2C(=O)Cc2ccccc2)[C@@H]1CO	-1.4
CCCNC(=O)N(C)C[C@@H]1Oc2cc(-c3cncnc3)ccc2S(=O)(=O)N([C@@H](C)CO)C[C@H]1C	-0.2
C[C@@H]1CN([C@H](C)CO)C(=O)c2cccc(NC(=O)c3ccc(-c4nccs4)cc3)c2O[C@H]1CN(C)Cc1ccc(C(=O)O)cc1	1.4
C[C@H](CO)N1C[C@H](C)[C@H](CN(C)C(=O)Nc2ccc3c(c2)OCO3)OCCCC[C@H](C)Oc2ccc(NC(=O)C3CCCCC3)cc2C1=O	3.7
CC1(C(=O)NS(=O)(=O)c2cccc(OC(F)F)c2)CCN1C(=O)C/C=C/c1ccccc1 (centres undefined)	-5.0
COCCNC(=O)C[C@@H]1CC[C@@H](NS(=O)(=O)c2ccc(C)cc2)[C@H](CO)O1	-0.8
O=C(N[C@H]1CC[C@@H](CCn2cc(C3(O)CCCC3)nn2)O[C@H]1CO)c1ccccc1F	-0.3
CCC(=O)N[C@@H]1CC[C@H](CCn2cc(C3CC3)nn2)O[C@H]1CO	-1.9
Cc1ccccc1-c1ccc([C@H]2[C@H]3CN(C(=O)c4ccccc4)CC(=O)N3[C@H]2CO)cc1	7.3
C=CS(=O)(=O)N(Cc1ccccc1Br)[C@H](CO)Cc1ccccc1	-2.3
CN(C)CCCNC(=O)C[C@H]1CC[C@@H]2[C@H](COc3ccc(NC(=O)c4ccccc4F)cc3C(=O)N2C)O1	-1.3

Quoted from the entries so far for reference:
SMILES	MLL AF4-AF9 inh
C[C@@H]1CN([C@H](C)CO)C(=O)c2cccc(NC(=O)Nc3ccc(F)cc3)c2O[C@@H]1CN(C)S(C)(=O)=O	-0.6
CS(=O)(=O)Nc1ccc2c(c1)[C@H]1C[C@@H](CC(=O)NCCN3CCCCC3)O[C@H](CO)[C@H]1O2	2.5

Further entries:
SMILES	MLL AF4-AF9 inh
C[C@@H]1CN([C@H](C)CO)C(=O)c2cc(Br)cnc2O[C@@H]1CN(C)Cc1ccc2c(c1)OCO2	-0.4
CC(C)NC(=O)Nc1ccc2c(c1)C(=O)N([C@H](C)CO)C[C@@H](C)[C@H](CN(C)Cc1ccc3c(c1)OCO3)O2	-0.8
CCCN1[C@@H]2Cn3c(ccc(-c4ccc(F)cc4)c3=O)[C@H]1[C@@H](C(=O)NCCOC)[C@@H]2CO	-15.4
C[C@H]1CN([C@@H](C)CO)S(=O)(=O)c2ccc(C3=CCCC3)cc2O[C@@H]1CN(C)Cc1ccccc1	-4.5
C[C@@H]1CN([C@@H](C)CO)C(=O)c2cc(NC(=O)CCCN(C)C)ccc2O[C@@H](C)CCCCO[C@@H]1CN(C)S(C)(=O)=O	-0.2
Nc1ccn([C@@H]2O[C@H](C(=O)N[C@H](CO)Cc3ccccc3)[C@@H](O)[C@H]2O)c(=O)n1	-5.4
CNC[C@H]1Oc2ccc(NC(=O)CCCN(C)C)cc2C(=O)N([C@H](C)CO)C[C@@H]1C	-4.1
C[C@@H]1CN([C@@H](C)CO)S(=O)(=O)c2ccc(C#CC(C)(C)O)cc2O[C@H]1CN(C)CC1CC1	-1.4
O=C(N[C@H]1CC[C@H](CCNS(=O)(=O)c2ccccc2)O[C@@H]1CO)c1cccc(F)c1	-1.2
C[C@H](CO)N1C[C@H](C)[C@@H](CN(C)C(=O)Cc2ccccc2)Oc2cc(-c3cncnc3)ccc2S1(=O)=O	8.6
Cc1noc(C)c1NC(=O)Nc1ccc2c(c1)C(=O)N([C@H](C)CO)C[C@H](C)[C@@H](CN(C)C(=O)CCCN(C)C)OCCCC[C@@H](C)O2	-3.2
C=CCNc1cccc2c1S(=O)(=O)N[C@@H](Cc1ccccc1)CO2	-0.2
COCC(=O)N1[C@H](C#N)[C@H](c2ccc(C3=CCCC3)cc2)[C@H]1CO	-0.9
Cc1ccc(S(=O)(=O)Nc2ccc3c(c2)C(=O)N([C@H](C)CO)C[C@H](C)[C@@H](CN(C)Cc2ccc(C(F)(F)F)cc2)OCCCC[C@H](C)O3)cc1	1.5
COc1cc(NC(=O)Cn2cnc3c(NCc4ccccc4)ncnc32)cc(OC)c1OC	-6.3
COc1ccccc1-c1ccc2c(c1)O[C@H](CN(C)S(=O)(=O)c1ccc(F)cc1)[C@@H](C)CN([C@H](C)CO)S2(=O)=O	-3.2
Cn1cnc(S(=O)(=O)N2CCCCN3[C@@H](CO)[C@H](c4ccc(-c5ccccc5)cc4)[C@@H]3C2)c1	-1.4
C[C@H](CO)N1C[C@H](C)[C@@H](CN(C)Cc2ccc(C(=O)Nc3ccccc3N)cc2)Oc2ccc(NS(C)(=O)=O)cc2CC1=O	-0.2
CCCNC(=O)c1cc2c(c(-c3cccc(-c4cc5ccccc5o4)c3)n1)[C@H](CCO)N(C(=O)NC(C)C)C2	0.8&-8.1
C[C@H]1CCCCO[C@@H](CN(C)C)[C@@H](C)CN([C@@H](C)CO)C(=O)c2cc(NS(=O)(=O)c3cccs3)ccc2O1	-1.1
O=C(C[C@@H]1C[C@@H]2c3cc(NS(=O)(=O)c4ccc(F)cc4)ccc3O[C@@H]2[C@@H](CO)O1)N1CCOCC1	-1.8
C[C@@H]1CCCCO[C@@H](CN(C)S(=O)(=O)c2cccs2)[C@H](C)CN([C@@H](C)CO)C(=O)c2cc(N(C)C)ccc2O1	7.5
C[C@H]1CN([C@@H](C)CO)C(=O)Cc2cc(NC(=O)Nc3ccc(C(F)(F)F)cc3)ccc2O[C@H]1CN(C)C(=O)Nc1ccccc1	-4.5
C[C@@H]1CN([C@@H](C)CO)S(=O)(=O)c2ccc(Br)cc2O[C@@H]1CN(C)C(=O)CC1CC1	-1.2
COc1ccc(NC(=O)N(C)C[C@@H]2Oc3ccc(NC(=O)c4ccncc4)cc3C(=O)N([C@@H](C)CO)C[C@@H]2C)cc1	-4.2
O=C(c1ccncc1)N1C[C@@H]2[C@H](c3ccccc31)[C@@H](CO)N2C(=O)Nc1ccc(F)cc1	-3.8
C[C@H](CO)N1C[C@H](C)[C@@H](CN(C)C)Oc2cc(/C=C/c3ccccc3)ccc2S1(=O)=O	16.4
CC(=O)N(C)C[C@@H]1Oc2cc(C#Cc3ccccc3F)ccc2S(=O)(=O)N([C@@H](C)CO)C[C@H]1C	-2.7
CN1C(=O)c2cc(NC(=O)C3CCOCC3)ccc2OC[C@@H]2O[C@H](CC(=O)NCC3CCCCC3)CC[C@@H]21	-3.3
O=C(C[C@H]1C[C@@H]2c3cc(NC(=O)c4cccnc4)ccc3O[C@@H]2[C@H](CO)O1)NC1CCCC1	0.5
CCCC(=O)Nc1ccc2c(c1)C(=O)N(C)C[C@@H](OC)[C@H](C)CN(Cc1ccc(-c3ccccn3)cc1)[C@H](C)CO2	-0.2
NC(c1ccccc1)c1cccs1 (centres undefined)	-1.5
CN1c2ccc(-c3cccc(C#N)c3)cc2[C@H]2[C@H](CCN2C(=O)C2CCCCC2)[C@H]1CO	13.9
COc1ccc(OCC2CN(Cc3ccccc3)S(=O)(=O)CCO2)cc1 (centres undefined)	-1.1
CS(=O)(=O)Nc1ccc2c(c1)[C@@H]1C[C@H](CC(=O)N3CCOCC3)O[C@@H](CO)[C@@H]1O2	-13.4

4 compounds picked at random from those above, as already listed:
SMILES	MLL AF4-AF9 inh
CN1c2ccc(-c3cccc(C#N)c3)cc2[C@H]2[C@H](CCN2C(=O)C2CCCCC2)[C@H]1CO	13.9
NC(c1ccccc1)c1cccs1 (centres undefined)	-1.5
CS(=O)(=O)Nc1ccc2c(c1)[C@@H]1C[C@H](CC(=O)N3CCOCC3)O[C@@H](CO)[C@@H]1O2	-13.4
CCCC(=O)Nc1ccc2c(c1)C(=O)N(C)C[C@@H](OC)[C@H](C)CN(Cc1ccc(-c3ccccn3)cc1)[C@H](C)CO2	-0.2
